Screening results (PubChem BioAssay)
VACV mCherry inh: vaccinia inhibition (mCherry reporter). AID 720579. hit rate 0.63% among 310,000. Potency, µM (series often up to 36.5 µM), inactives show at the top dose activity change, negative = inhibition, hits mostly inhibitors. Vaccinia virus mCherry reporter infection, fluorescence; about a quarter of the inactives have no number; active = well fitted inhibition curve with a large enough effect; inconclusive = small, poorly fitted or top-dose-only effect; inactive = no such curve, though single readings can be large or run the other way; tested in A549 cells; note: nearly all actives have a fitted effect of over 35% in size; inactives centre near -10
VACV Venus inh: vaccinia inhibition (Venus reporter); Vaccinia virus Venus reporter expression, fluorescence; AID 720580; hit rate 0.46% among 330,000; Potency, µM (doses to about 36.5 µM), without a hit: at the top dose activity change, negative = inhibition, most hits filed as inhibitors; active means well fitted inhibition curve with a large enough effect; inconclusive means small, poorly fitted or top-dose-only effect; inactive means no such curve, though single readings can be large or run the other way; tested in A549 cells; note: nearly all actives have a fitted effect of over 30% in size; inactives centre near -10
Numbers without * were called inactive; i = inactive; u = inconclusive; x = no result given; [ ] = dose if it differs, or a comment. % is set by controls: 0 for no effect and ±100 for the full control effect; potency is the fitted concentration of half-maximal effect.

Under each structure – VACV mCherry inh, VACV Venus inh
- C/C(CCc1ccc2c(c1)OCO2)=N\NC(=O)c1ccccc1Cl
→ -13%, -11%
- CCN(CC)S(=O)(=O)c1cc(C(=O)N2CCc3ccccc32)ccc1Cl
→ -10%, u
- Cn1ccnc1SCC(=O)Nc1ccc([N+](=O)[O-])cn1
→ i, -14%
- COc1ccc(/C=C/C(=O)OCC(=O)Nc2cc(C(F)(F)F)ccc2Cl)cc1
→ u, u
- NC(=O)[C@@H]1CCCCNc2c(F)cc([N+](=O)[O-])cc2C(=O)N[C@@H](CC(=O)O)C(=O)N[C@@H](CCC(=O)O)C(=O)N1
→ i, -14%
- Cc1ccc([C@H]2C[C@@H](n3cc(-c4ccc(F)cc4)nn3)[C@H](O)CN2C(=O)c2cccs2)cc1
→ -13%, -18%
- COc1ccccc1NC(=S)N(Cc1ccccc1)Cc1cccs1
→ -11%, -4%
- c1ccc(-c2ccncn2)cc1
→ -14%, 7%
- O=C(Nc1nc2nccc(-c3ccccc3)n2n1)C(Cl)(Cl)Cl
→ i, -24%
- COc1ccc(C(O)c2nc(-c3cccc(F)c3)cs2)cc1 (configuration not stated)
→ u, -1%
- Clc1cc(I)cc(Cl)c1NC1=NCCN1
→ -15%, -8%
- CC(=O)Nc1ccc(/C=C/c2sc3ccccc3[n+]2CCCCI)cc1
→ 36%[activator], 61%[activator]
- O=C(CCC(=O)c1cccs1)OCc1nnc(-c2ccccc2)o1
→ -16%, -12%
- Cc1ccc(CNS(=O)(=O)c2cccc3nsnc23)cc1
→ -5%, -1%
- Cc1ccc2c(c1)CC1(CN2C)C(=O)NC(=O)N(c2cccc(C)c2C)C1=O (configuration not stated)
→ -8%, -3%
- O=c1ccc(Cl)n[nH]1
→ -9%, 12%
- CC(=O)Nc1ccc(NC(=O)C2CCCCC2C(=O)O)cc1 (configuration not stated)
→ -12%, -8%
- C=CCNC(=S)N1CCC(C(=O)c2ccc(F)cc2)CC1
→ i, -6%
- CCOc1cc(CNCCSc2nnnn2-c2ccccc2)ccc1OC
→ -12%, -7%
- Cc1ccc(C(=O)N/N=C2/NC(=O)CC(C(=O)Nc3ccccc3)S2)cc1 (configuration not stated)
→ -18%, -14%
- COc1cc(-c2nnn(CC#N)n2)ccc1OCc1ccccc1
→ -13%, 0%
- COc1ccc(CC(N)c2csc(NC(=O)c3cc(C(C)(C)C)oc3C)n2)cc1 (configuration not stated)
→ -22%, -18%
- CCCS(=O)(=O)N1CCC(C(=O)NCCN2CCCC2)CC1
→ x, -5%
- CCCN(CC(=O)Nc1ccccc1C)C(=O)Cc1coc2cc(C)ccc12
→ i, -14%
- CCOc1ccc2c(c1)c(=O)c(C(=O)c1ccc3c(c1)OCO3)cn2Cc1ccc(F)cc1
→ i, -13%
- COc1ccc(CNC(=O)C(OC(=O)c2ccco2)c2ccccc2)cc1 (configuration not stated)
→ -17%, -6%
- Cc1ccc(Cl)cc1N1CCN(C(=O)C(=O)N2CCCCC2)CC1
→ 0%, -3%
- COc1ccc(NC(=O)CSc2nc(-c3cccs3)cc(C(F)(F)F)n2)cc1OC
→ u, u
- CCCCCCSc1ccc([C@@H]2[C@H]3C(=O)N(CC)C(=O)[C@H]3[C@]3(C(=O)OC)CCCN23)cc1
→ -11%, -20%
- CCOc1ccc(CNC(=S)N/N=C\c2ccc([N+](=O)[O-])cc2)cc1
→ -28%, -18%
- CCC(CC)c1nnc(NC(=O)CC(C)c2ccccc2)s1 (configuration not stated)
→ -3%, -7%
- CC[C@]1(C(=O)OC)[C@H]2C(=O)N(Cc3ccccc3)C(=O)[C@H]2[C@H]2CN=C(SCc3ccc(Cl)cc3)N21
→ u, -21%
- CN(C(=O)C=Cc1ccccc1)c1ccccc1
→ -21%, -4%
- O=C1OC(O)c2cccc3cccc1c23 (configuration not stated)
→ -3%, u
- COc1cccc(-c2ccc(O)c(CNCc3cccc(OC)c3OC)c2)n1
→ -15%, -11%
- Cc1ccc(NC(=O)c2ccc(CN3CC(=O)N4CCCCC4C3=O)cc2)cc1 (configuration not stated)
→ i, -13%
- CN(c1ccccc1)S(=O)(=O)c1cccc(C(=O)OCC(=O)NCc2ccccc2)c1
→ i, -9%
- CC1CCN(c2ccc(-c3cccs3)nn2)CC1
→ i, -20%
- COCCC(=O)N1CCC(Oc2ccc(C(=O)NCCn3cccn3)cc2)CC1
→ -17%, -15%
- C/C=C/c1ccc(OCC(=O)N2CCc3cc(OC)c(OC)cc3C2)c(OC)c1
→ i, -8%
- CC(=O)Nc1ccc(S(=O)(=O)N2CCN(c3cc(C(F)(F)F)ccn3)CC2)cc1
→ -4%[7.34 µM], -5%[7.34 µM]
- O=C(O)c1cccc(N2C(=O)C3CC=CCC3C2=O)c1 (configuration not stated)
→ i, 0%
- CCOc1ccccc1NC(=O)c1cc2ccccc2o1
→ i, -9%
- CC1(C)CC(=O)c2c(oc3ccc(NS(=O)(=O)c4ccc(C(=O)O)cc4)cc23)C1
→ i, -6%
- COc1ccc(OCCCC(=O)NCCc2ccc(OC)c(OC)c2)cc1
→ u, -10%
- CC1Cc2ccccc2N1C(=O)CN1CCN(S(=O)(=O)c2ccc3c(c2)OCCCO3)CC1 (configuration not stated)
→ -4%, -19%
- CCOC(=O)[C@]12CCC=C1N(Cc1ccc(Cl)cc1Cl)C(=O)[C@H](CC(=O)NCCc1ccccc1OC)C2
→ 12%, -8%
- CCOc1c2ccc(C(=O)NCc3ccccc3OC)cc2nn1CC
→ -17%, -29%
- CC(=O)Nc1ccc(NCC(O)COc2ccccc2)cc1 (configuration not stated)
→ x, -19%
- O=C(c1ccc(Cl)c([N+](=O)[O-])c1)N1CCN(c2ccccn2)CC1
→ -9%, -5%
- Cc1onc(-c2c(F)cccc2Cl)c1C(=O)N[C@@H]1C(=O)N2C(C(=O)O)C(C)(C)S[C@H]12 (some centres not stated)
→ -14%, -4%
- COc1cc(C2C(C#N)=C(N)N(c3ccc(F)cc3)C3=C2S(=O)(=O)CC3)ccc1O (configuration not stated)
→ 10%, 4%
- CN(C)c1ccc(-n2cccc2)cc1
→ i, 1%
- Cc1cccc(Cn2c(SCc3ccc(C(=O)N4CCC(C)CC4)cc3)nc3ccncc32)c1
→ u, u
- Cc1ccc(NS(=O)(=O)c2ccc3c(c2)[C@H]2C=CC[C@H]2[C@@H](c2ccc(F)cc2)N3)cc1C
→ -9%, -12%
- COC(=O)CN1C(=O)C(O)(CC(=O)c2ccc(C)o2)c2ccccc21 (configuration not stated)
→ x, -9%
- COc1cc(C2Nc3ccccc3C(=O)N2NS(C)(=O)=O)c([N+](=O)[O-])cc1OC (configuration not stated)
→ -26%, -7%
- Cc1ccc(Sc2ncnc(N)c2[N+](=O)[O-])cc1
→ -18%, -9%
- O=c1c(Cl)c(NC2CC2)cnn1-c1ccccc1
→ i, -9%
- CCN(CC)S(=O)(=O)c1ccc2nc(NC(=O)c3cccs3)sc2c1
→ -7%, -20%

(cont.)
Under each structure – VACV mCherry inh, VACV Venus inh
- Cc1ccc(C)c(CNC(=O)C2CCCCN2S(=O)(=O)c2ccc(F)cc2)c1 (configuration not stated)
→ -12%, -7%
- CC1=[N+](CC(=O)c2ccccc2)CCn2cccc21
→ -12%, -3%
- CC(NS(=O)(=O)c1ccc(CCC(=O)NCc2cccnc2)cc1)c1ccccc1 (configuration not stated)
→ -27%, -9%
- CCc1ccc(Nc2nnc(SCc3cc(=O)n4ccsc4n3)s2)cc1
→ x, -7%
- Cc1cc(C)cc(NC(=S)NCc2ccc3c(c2)OCO3)c1
→ i, -8%
- O=C(NC1CCCC1)C(c1ccncc1)N(C(=O)c1ccco1)c1ccc(F)c(Cl)c1 (configuration not stated)
→ -13%, -13%
- CCCCCc1nc2c(=O)[nH]c3ccccc3c2o1
→ -21%, -13%
- COC(=O)CC1C(=O)NCCN1C(=O)CSc1nc2cc(Cl)ccc2o1 (configuration not stated)
→ u, -19%
- O=C(O)c1ccc(-c2nc3ccccc3s2)o1
→ -10%, -6%
- O=C(COc1ccccc1)Nc1ccc(NC(=O)c2ccco2)cc1
→ -14%, -10%
- CCOC(=O)c1ccc(S(=O)(=O)N2CCC(C(=O)N3CCN(c4ccccc4OC)CC3)CC2)cc1
→ u, u
- CNC(=O)/C(C#N)=C/c1c(N(Cc2ccccc2)Cc2ccccc2)nc2ccccn2c1=O
→ -20%, u
- C#CCN1C(=O)C2C(C(=O)NC)C3C=CC2(O3)C1C(=O)NCc1ccc(OC)cc1 (configuration not stated)
→ -9%, 8%
- Cc1ccc(/C=C/C(=O)CCC(=O)O)cc1
→ i, -17%
- Cc1ccc(Oc2cc(C#N)c(C#N)cc2-n2nnc3ccccc32)cc1C
→ -12%, 0%
- CCc1ccc(C2=C(C)C(N3CCC(C(=O)Nc4cccc(OC)c4)CC3)=NS2(=O)=O)cc1
→ -26%, -26%
- O=C(c1ccc(Cl)c(S(=O)(=O)N2CCc3ccccc32)c1)N1CCN(c2ccccc2O)CC1
→ -16%, -25%
- CCCn1nc(C(=O)NCc2ccccn2)c2ccccc2c1=O
→ -6%, 4%
- COc1ccc(NC(=O)COC(=O)c2ccc(Cl)c(S(N)(=O)=O)c2)c([N+](=O)[O-])c1
→ -23%, -20%
- Clc1ccc2[nH]c3c(N4CCC5(CC4)OCCO5)ncnc3c2c1
→ 8.9µM*, 8.9µM*
- Cc1cccc(NC(=O)CSC2=Nc3ccccc3C3=NC(CC(=O)NCc4cccs4)C(=O)N23)c1 (configuration not stated)
→ -6%, -1%
- O=C(Cn1cnc2nc3c(cc2c1=O)CCCC3)N1CCN(c2cccc(C(F)(F)F)c2)CC1
→ -17%, -18%
- CC(=O)c1ccc(NC(=O)C2CCCN(c3ncnc4c3nc3n4CCCCC3)C2)cc1 (configuration not stated)
→ i, -11%
- Cc1nc2ccccc2n1CCc1ccccc1
→ -14%, -4%
- CCCS(=O)(=O)N1CCCC(C(=O)NCCOC)C1 (configuration not stated)
→ 6%, -1%
- COC(=O)c1ccccc1OCCCOc1ccc(C=O)cc1OC
→ x, 5%
- CCOC(=O)CC1(NC(=O)c2cc(COc3cncc(Cl)c3)on2)CCCCC1
→ -12%, -12%
- O=C(Nc1cccc(C(F)(F)F)c1)c1cc(-c2ccco2)on1
→ u, -3%
- O=C(NCCc1cccs1)c1cccs1
→ 2%, 4%
- CCOC(=O)c1c(SCC(=O)Nc2cc(Cl)cc(Cl)c2)nc(=O)[nH]c1C
→ -13%, -18%
- O=C(c1ccc(-c2ccccc2)cc1)N1CCN(c2nc3ccccc3o2)CC1
→ i, -4%
- COc1cc2c(cc1OC)n(CC(=O)Nc1ccccc1)c(=O)n1nc(-c3ccccc3)nc21
→ -12%, -10%
- C[n+]1cnc(-c2ccccc2)cc1-c1ccccc1
→ -4%, -5%
- COc1ccc2nc(SCC(=O)N3CC(=O)Nc4ccccc43)c(C#N)cc2c1
→ u, u
- COCCn1c(SCC(=O)Nc2ccc(F)cc2)nc2c(oc3ccccc32)c1=O
→ i, -5%
- CCN(CC)C(=O)CSc1nc2ccccc2c(=O)n1OC
→ x, -20%
- Cc1ccc(S(=O)(=O)CCC(=O)OCn2nnc3ccccc3c2=O)cc1
→ i, -12%
- O=C(CCn1c(=O)c2sccc2n(Cc2ccc(F)cc2)c1=O)NCc1ccc2c(c1)OCO2
→ -9%, -9%
- Cc1cc(-c2ccccc2)nc2[n+]1CCN2C
→ -22%, -28%
- CC1=NN(c2ccccc2)C(=O)/C1=C\c1ccc(Br)s1
→ i, -8%
- CCOc1ccc(NC(=O)CSc2nc(=O)n(CCN3CCOCC3)c3c2CCCC3)cc1
→ -10%, -10%
- O=[N+]([O-])c1ccc(COc2cccc(CN3CCOCC3)c2)cc1
→ -6%, -6%
- CCOC(=O)[C@]12CCC=C1N(Cc1ccco1)C(=O)[C@H](CC(=O)NCCCN1CCCC1=O)C2
→ 11%, 2%
- COCc1ccc(CN2CCCC(CO)(Cc3ccccc3C)C2)o1 (configuration not stated)
→ 1%, -4%

Among those listed so far, 13 contain a furan ring, fused or not:
Under each structure – VACV mCherry inh, VACV Venus inh
- COc1ccc(CC(N)c2csc(NC(=O)c3cc(C(C)(C)C)oc3C)n2)cc1 (configuration not stated)
→ -22%, -18%
- CCCN(CC(=O)Nc1ccccc1C)C(=O)Cc1coc2cc(C)ccc12
→ i, -14%
- COc1ccc(CNC(=O)C(OC(=O)c2ccco2)c2ccccc2)cc1 (configuration not stated)
→ -17%, -6%
- CCOc1ccccc1NC(=O)c1cc2ccccc2o1
→ i, -9%
- CC1(C)CC(=O)c2c(oc3ccc(NS(=O)(=O)c4ccc(C(=O)O)cc4)cc23)C1
→ i, -6%
- COC(=O)CN1C(=O)C(O)(CC(=O)c2ccc(C)o2)c2ccccc21 (configuration not stated)
→ x, -9%
- O=C(NC1CCCC1)C(c1ccncc1)N(C(=O)c1ccco1)c1ccc(F)c(Cl)c1 (configuration not stated)
→ -13%, -13%
- O=C(O)c1ccc(-c2nc3ccccc3s2)o1
→ -10%, -6%
- O=C(COc1ccccc1)Nc1ccc(NC(=O)c2ccco2)cc1
→ -14%, -10%
- O=C(Nc1cccc(C(F)(F)F)c1)c1cc(-c2ccco2)on1
→ u, -3%
- COCCn1c(SCC(=O)Nc2ccc(F)cc2)nc2c(oc3ccccc32)c1=O
→ i, -5%
- CCOC(=O)[C@]12CCC=C1N(Cc1ccco1)C(=O)[C@H](CC(=O)NCCCN1CCCC1=O)C2
→ 11%, 2%
- COCc1ccc(CN2CCCC(CO)(Cc3ccccc3C)C2)o1 (configuration not stated)
→ 1%, -4%

Compounds were not picked by outcome. About 0.86% of those tested had a hit in this group.
